Ba CapD inh: CapD enzyme inhibition. purified CapD enzyme, fluorescence intensity read-out; active compounds read low; some hits fall short of the stated cut. z-score (concentration not given with the values). hit rate 0.23% among 140,000. AID 492967;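 active means z-score under -4 in either of two replicates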;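 further: stock transfer was 100 nL into about 40 µL; score is relative to mean and spread of the plate; one replicate is shown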
AID504770: E. coli YBA685 growth inhibition, screen for V. cholerae RctB inhibitors; E. coli YBA685 rctB-dependent plasmid, OD600 growth, 3 h; active compounds read low; z-score (no concentration beside the values); hit rate 0.27% among 130,000; AID 504770;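 active means z-score under -2 on both plates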;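 further: wells of about 30 µL received 100 nL stock; score is relative to mean and SD of the test wells; the first replicate is given; strong numbers were not always called active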
Active calls of the source: *; . = no result given.

SMILES	Ba CapD inh	AID504770
CCCCOc1ccc(C2C3CCCC=C3C(C#N)=C(N)C2(C#N)C#N)cc1 (stereo not drawn)	-0.12	.
Cc1ccsc1/C=N/NC(=O)C1C2CCCCC21 (stereo not drawn)	-0.66	1.9
COc1cccc(-c2nc(-c3ccc(-c4ccccc4)cc3)c(-c3ccc(-c4ccccc4)cc3)[nH]2)c1	-0.2	.
CCC(C)NC(=O)c1ccc2c(c1)ncn2-c1ccc(C)cc1C (stereo not drawn)	-0.47	.
COc1cccc(NC(=S)N(CCC#N)/N=C/c2ccc3c(c2)OCO3)c1	-0.43	1
Cc1noc(C)c1C(=O)N1CCc2sccc2C1c1ccc(C(F)(F)F)cc1 (stereo not drawn)	1	0.45
NC(=O)CSc1nc2cc(Cl)ccc2s1	.	-0.15
CN(C)CCNc1cc(-c2ccccc2)nc2ccccc12	17	-0.35
Nc1ccccc1-n1ccnc1	.	0.15
CCOC(=O)COc1ccc2c(C#N)c3ccccn3c2c1	0.44	-0.55
O=C(COc1ccc2ccccc2c1)N1CCN(Cc2ccncc2)CC1	.	0.05
CC(C)c1nc(N2CCN(C(=O)c3ccccc3)CC2)c(C#N)c2c1COC(C)(C)C2	12	0.05
C#CCOc1ccc(/C=C2/C(=O)N(c3ccc(S(N)(=O)=O)cc3)N=C2C)cc1OCC	-0.12	.
O=C(NCc1ccc(Cl)cc1)c1ccc(Cn2c(=O)[nH]c3ccsc3c2=O)cc1	-1.5	2.9
CC1CC(=O)c2ccc(O)cc21 (stereo not drawn)	.	-3.2
Cc1cc(Cl)ccc1NC(=S)NN	0.075	.
CCN(CC)C(=O)c1cc(-c2cccs2)nn1-c1ccccc1	.	-0.55
COc1ccc(C2Nc3ccccc3C(=O)N2Cc2ccco2)cc1COc1ccc([N+](=O)[O-])cc1 (stereo not drawn)	2.4	.
O=S(=O)(c1ccc(-c2csnn2)s1)N1CCN(c2ccccn2)CC1	-0.24	.
NC(N)=N/N=C/c1ccc(O)c(Cl)c1	13	0
Cc1cc(C)c(NC(=S)NCCO)c(C)c1	0.18	0.25
CN1C(=O)c2ccccc2N2C(=O)CCC12C(=O)O (stereo not drawn)	.	-0.25
C=CCN1C(=O)/C(=C\c2ccc(Oc3nc(N4CCOCC4)nc(N4CCOCC4)n3)c(OC)c2)SC1=S	0.21	.
CCN(CC)CCNc1nc2c(c(=O)n(C)c(=O)n2C)n1CCc1ccccc1	.	2.2
CCCCCOC(=O)CCCCCN1C(=O)C2C3c4ccccc4C(c4ccccc43)C2C1=O (stereo not drawn)	0.09	.
O=C(c1cncc(Br)c1)N(c1nccs1)C1CCCCC1	.	0.3
CC(C)C(NC(=O)Cc1c[nH]c2ccccc12)C(=O)NCCc1ccc(S(N)(=O)=O)cc1 (stereo not drawn)	-0.88	.
COc1ccc(-n2nc(C(=O)NCC(=O)NCc3ccccn3)c3ccccc3c2=O)cc1	0.37	-0.3
CCN(CC)CC#N	.	-0.1
O=C(Cc1ccccc1)NCc1nc2ccccc2n1Cc1ccccc1F	0.71	0.05
CC1=CC(=O)CC(C)(C)C1(O)/C=C/C(C)=C/C(=O)O (stereo not drawn)	1.1	0.65
Cc1ccc(Nc2ccc(N3CCN(C(=O)CCc4ccccc4)CC3)nn2)cc1	.	0.75
CCOC(=O)C1=C(C)N=c2s/c(=C/c3cc(OC)c(O)c([N+](=O)[O-])c3)c(=O)n2C1c1ccc(OC)cc1 (stereo not drawn)	-0.94	.
Cc1ccc(C(=O)OCC(=O)Nc2c(F)c(F)c(F)c(F)c2F)s1	-0.97	-0.85
CCN(CC)C(=S)Oc1ccccc1C(=O)Nc1ccc(Cl)c(Cl)c1	0.34	-0.65
COC(=O)C1=C(C(=O)OC)SC(=C2C(=S)C(C)(C)N(C(C)=O)c3ccc(OC)cc32)S1	0.95	.
CC1=C(C(=O)OCCOc2ccccc2)C(c2ccc(O)c([N+](=O)[O-])c2)NC(=O)N1 (stereo not drawn)	-1.1	.
O=C(Nc1cc2c3c(c1)C1CCCC1CN3CC1CCCC21)c1ccc([N+](=O)[O-])cc1 (stereo not drawn)	-0.1	.
NC(=O)C1CCN(C(=O)C2c3ccccc3C(=O)N3CCc4ccccc4C23)CC1 (stereo not drawn)	0.045	-1
Cc1cccc(C(=O)N/N=C/c2ccc3c(c2)n(C)c(=O)n3C)c1	12	-1.9
CC(=O)N1CCc2cc(S(=O)(=O)NC(CC(C)C)C(=O)N(C)Cc3ccccc3)ccc21 (stereo not drawn)	0.57	-0.4
COCCCN1C(=O)/C(=C/c2c(N3CCN(C)CC3)nc3c(C)cccn3c2=O)SC1=S	-0.69	.
Cc1cc(C)cc(OCC(=O)OCC(=O)NC2CC2)c1	-0.26	-0.35
CC(Sc1nnc(-c2ccncc2)n1C)C(=O)NC(N)=O (stereo not drawn)	.	-0.65
CCC(C(=O)NCc1ccc2[nH]c(C)cc2c1)c1ccccc1 (stereo not drawn)	-0.57	1.7
O=C(c1ccc2c(c1)N(Cc1ccccc1)CCS2)N1CCC2(CC1)OCCO2	66	0.35
C/C(=N\NC(N)=S)C1Cc2ccccc2C(=O)O1 (stereo not drawn)	.	0.95
CSc1nc(NC2CCCCC2)c(C#N)c(-c2ccccc2)n1	0.49	-0.4
COc1ccc(/C(=N/O)C(C)C)cc1	0.24	.
CCn1c(COc2cc(C)ccc2C)nnc1SC(C)C(=O)Nc1ccc2c(c1)OCO2 (stereo not drawn)	.	-0.15
COc1ccccc1N1CCN(S(=O)(=O)c2ccc3[nH]cc(C(=O)O)c(=O)c3c2)CC1	-0.09	1.3
CCOC(=O)Nc1c[nH]c2c(C)cccc2c1=O	.	-0.8
O=C1CCN(C(=O)c2ccc3ccccc3n2)CC1	.	-0.95
CC(=O)c1cc(NC(=O)c2ccc(C)cc2)c(=O)n(Cc2ccccc2)c1C	0.36	.
COc1ccccc1OCCNC(=O)c1ccc(S(C)(=O)=O)cc1	.	-0.35
CN(C)c1ccc2c3c(cccc13)C(=O)N(c1nc3ccccc3[nH]1)C2=O	-0.99	.
S=c1[nH]nc(COc2ccccc2)n1/N=C/c1cccnc1	-1.5	2
CC1CCCCN1C(=O)Cn1nnc2c(cnn2-c2ccccc2)c1=O (stereo not drawn)	.	-1.4
CC1=C(C(=O)N2CCOCC2)C(c2ccccc2OC(C)C)C2=C(CCCC2=O)N1 (stereo not drawn)	79	2.6
O=C1C2CN3CN(C2)CC1(c1ccccc1)C3	.	0.25
More structures.
SMILES	Ba CapD inh	AID504770
CNC(=S)N1CCc2ccccc21	.	0.25
O=C(OCc1cccc(Oc2ccccc2)c1)N1CCN(c2cnccn2)CC1	38	.
CCCCc1cc2c(=O)c(-c3cc4ccccc4o3)coc2cc1O	.	-0.05
O=C(NCCSCc1ccccc1)c1ccc(C2SCC(=O)N2Cc2ccccc2)cc1 (stereo not drawn)	-0.24	.
N#CC(C(=O)N1CCOCC1)C(=S)Nc1ccccc1Cl (stereo not drawn)	-0.9	.
CC(C)c1ccc(Nc2s[nH]c(=O)c2C#N)cc1	0.19	.
O=C(NCCN1CCOCC1)c1cc2sccc2n1Cc1ccc(Cl)cc1	-0.06	-0.5
S=C(Nc1ccccc1)N1CCN(c2ccccc2)CC1	.	-0.6
Cc1ccc(-c2n[nH]c(=S)[nH]c2=O)cc1	.	0.3
Cc1nnsc1-c1nnc(-c2cccc3ccccc23)o1	1.2	-0.2
COc1cc(/C=C2/N=C(c3ccc(Br)cc3)OC2=O)ccc1OC(C)=O	0.72	.
OCc1csc(=Nc2ccccc2)n1-c1ccccc1	-0.3	-0.8
Cc1[nH]c2ccccc2c1C(O)c1ccncc1 (stereo not drawn)	-0.45	-0.55
CCN(CC)C(=O)c1ccc(=O)n(Cc2c(Cl)cccc2Cl)c1	0.65	.
COc1ccc(/C=C2/C(=O)C(C(C)C)CCC2C)cc1 (stereo not drawn)	-0.49	.
CCc1nc2oc(C(=O)c3ccc(Cl)cc3)c(N)c2c2c1COC(C)(C)C2	0.63	0.2
CCCCOc1ncnc2ncn(CCCl)c12	0.2	.
NS(=O)(=O)c1ccc(N(S(=O)(=O)c2ccccc2)S(=O)(=O)c2ccccc2)cc1	0.05	0.1
Cc1ccc(C)n1-c1ccsc1-c1cc2nccc(-c3cccnc3)n2n1	-0.075	.
Cc1nc2c(cnn2-c2ccccc2)c(=O)o1	-0.66	2.2
CC1(C)CC(NC(=O)c2ccccc2C(=O)NC2CC(C)(C)NC(C)(C)C2)CC(C)(C)N1	0.42	-0.1
CCOC(=O)c1noc2ncnc(N3CCc4cc(OC)c(OC)cc4C3C)c12 (stereo not drawn)	0.1	-0.3
Cc1ccc(C2(CCN=Cc3ccccc3)CCOC(C)(C)C2)cc1 (stereo not drawn)	0	0.3
COC(=O)Nc1scc(-c2ccccc2)c1C(=O)NCc1ccco1	0.79	0.7
CN1c2ccccc2CC(C#N)(C#N)C12CCCCC2	.	-0.3
CCCCCCCNC(=O)c1c[nH]c2ccc(S(=O)(=O)N(C)c3ccc(Br)cc3)cc2c1=O	0.2	.
CC(NCc1nc2cc(Cl)ccc2c(=O)[nH]1)C1CC2CCC1C2 (stereo not drawn)	.	-0.7
OC(Cn1cncn1)Cn1cncn1	.	0.55
O=C1CC2CCC(CN1)N2S(=O)(=O)c1ccc(C(=O)O)cc1 (stereo not drawn)	.	-0.65
Cc1cc(NCCO)c2cc(O)ccc2n1	52	-0.6
CCC(Oc1ccccc1)C(=O)N1C(=O)c2cccc(N)c2C1=O (stereo not drawn)	.	1
CCC(C)C(NC(=O)C1CCC(C)CC1)C(=O)NCc1cccnc1 (stereo not drawn)	0.01	0
Cc1ccc(N2CCN(c3ccc(C)cc3)C2c2ccc(C(C)C)cc2)cc1	-0.13	.
O=C(OCc1nnc(-c2ccc(Cl)cc2)o1)C1=NN(c2ccccc2)C(=O)CC1	.	-0.35
O=S(=O)(/N=c1/cc(-c2ccccc2)ss1)c1ccccc1	0.57	-0.3
COc1cccc(/C=N/NC(=S)NCCc2ccccc2)c1OC	-0.69	.
CC1CCN(c2nnc(NC(=O)c3csc4c3CCCC4)s2)CC1	0.34	-0.3
COC(=O)C1CCN(c2ccc(Cl)nn2)CC1	.	-0.5
c1csc(-c2nc(CN3CCSCC3)cs2)c1	3.7	-1.2
N#Cc1cc(C#N)c(SCC(=O)NCc2ccco2)nc1N	-0.12	-0.75
COc1ccc(C(=O)N2c3ccccc3N3C(c4c(C)cc(C)cc4C)=NON23)cc1	-0.32	0.15
COc1ccc(CSc2sc(C(=O)c3ccccc3)c(N)c2C#N)cc1	-0.36	.
NNC(=O)c1ccc(OC2OCCOC2Oc2ccc(C(=O)NN)cc2)cc1 (stereo not drawn)	.	-0.1
Cn1c(=O)[nH]c(=O)c2c1nc(N1CCN(CC(N)=O)CC1)n2Cc1ccccc1F	.	1.6
CCN(CC)c1ccc2cc(C(N)=O)c(=Nc3cccc(C)c3)oc2c1	6.8	-0.3
C=C(C)C(=O)Nc1ccc(Oc2ccc(F)cc2)nc1	-0.42	1.2
Cc1ccc(N(CC(O)Cn2c3ccccc3c3ccccc32)S(=O)(=O)c2ccc(C)cc2)cc1 (stereo not drawn)	-0.71	.
CC(Sc1nnc(-c2cccc(S(=O)(=O)N3CCCC3)c2)n1-c1ccccc1)C(N)=O (stereo not drawn)	.	0.2
Cc1ccc(C2CC(C(F)(F)F)n3nc(C(=O)Nc4c(C)n(C)n(-c5ccccc5)c4=O)cc3N2)cc1 (stereo not drawn)	1	.
Cc1cc(N/C=C/C(=O)c2ccc(OCCCF)cc2)ccc1Br	0.1	.
COC(=O)c1ccccc1SNc1ccccc1C	-0.55	1.8
NC(=O)CSc1nc2ccc(Cl)cc2[nH]1	-0.37	-0.5
CC(=O)Nc1ccccc1-c1n[nH]c(=S)[nH]c1=O	-0.15	-0.45
COc1ccc(C[C@@H]2NC[C@@H](O)[C@@H]2OC(C)=O)cc1	-0.31	.
O=C(Cn1cnnn1)Nc1nccs1	.	0.2
C/C(O)=C1/C(=O)NC2(C)CC1c1cc(Cl)ccc1O2 (stereo not drawn)	0.6	.
CCCCN1C(=O)C2ON(c3ccccc3)C(c3cc(Br)ccc3O)C2C1=O (stereo not drawn)	0.76	0.4
O=c1c2c3c(sc2nc(SCCO)n1-c1ccccc1)CCCC3	-0.34	-0.35

Filtered by structure: the compounds so far with two or more sulfur atoms
SMILES	Ba CapD inh	AID504770
NC(=O)CSc1nc2cc(Cl)ccc2s1	.	-0.15
O=S(=O)(c1ccc(-c2csnn2)s1)N1CCN(c2ccccn2)CC1	-0.24	.
C=CCN1C(=O)/C(=C\c2ccc(Oc3nc(N4CCOCC4)nc(N4CCOCC4)n3)c(OC)c2)SC1=S	0.21	.
COC(=O)C1=C(C(=O)OC)SC(=C2C(=S)C(C)(C)N(C(C)=O)c3ccc(OC)cc32)S1	0.95	.
COCCCN1C(=O)/C(=C/c2c(N3CCN(C)CC3)nc3c(C)cccn3c2=O)SC1=S	-0.69	.
O=C(NCCSCc1ccccc1)c1ccc(C2SCC(=O)N2Cc2ccccc2)cc1 (stereo not drawn)	-0.24	.
NS(=O)(=O)c1ccc(N(S(=O)(=O)c2ccccc2)S(=O)(=O)c2ccccc2)cc1	0.05	0.1
O=S(=O)(/N=c1/cc(-c2ccccc2)ss1)c1ccccc1	0.57	-0.3
CC1CCN(c2nnc(NC(=O)c3csc4c3CCCC4)s2)CC1	0.34	-0.3
c1csc(-c2nc(CN3CCSCC3)cs2)c1	3.7	-1.2
COc1ccc(CSc2sc(C(=O)c3ccccc3)c(N)c2C#N)cc1	-0.36	.
CC(Sc1nnc(-c2cccc(S(=O)(=O)N3CCCC3)c2)n1-c1ccccc1)C(N)=O (stereo not drawn)	.	0.2
O=c1c2c3c(sc2nc(SCCO)n1-c1ccccc1)CCCC3	-0.34	-0.35
